# Source: PubChem BioAssay
# RmlCD inh 1536 – blocks M. tuberculosis RmlC and RmlD coupled enzymes | inhibition, % at 3.6 µM | 160,000 tested, 0.03% active | P9WH09+P9WH11 | RmlC+RmlD coupled enzyme assay, percent inhibition; primary screen in compound mixtures; in the data active means inhibition mostly above about 34%, no sharp cut-off; only retested compounds are shown here; further: some results filed as inactive read as strong as hits
# Target sequence (P9WH09 whole entry, looked up): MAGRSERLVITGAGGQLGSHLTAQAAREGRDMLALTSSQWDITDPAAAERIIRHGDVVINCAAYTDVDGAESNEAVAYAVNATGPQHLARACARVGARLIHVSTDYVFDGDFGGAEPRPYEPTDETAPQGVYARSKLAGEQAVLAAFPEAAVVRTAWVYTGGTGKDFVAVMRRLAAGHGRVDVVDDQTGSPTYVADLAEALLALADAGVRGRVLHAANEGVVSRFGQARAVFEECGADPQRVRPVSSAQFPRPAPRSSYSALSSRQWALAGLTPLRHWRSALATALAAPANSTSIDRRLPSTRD
# Target sequence (P9WH11 whole entry, looked up): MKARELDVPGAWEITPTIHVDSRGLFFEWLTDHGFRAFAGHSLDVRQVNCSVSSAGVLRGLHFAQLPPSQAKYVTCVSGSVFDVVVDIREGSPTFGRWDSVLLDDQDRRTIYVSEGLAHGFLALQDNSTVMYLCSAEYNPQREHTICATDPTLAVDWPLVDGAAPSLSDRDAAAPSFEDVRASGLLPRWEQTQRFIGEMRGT
# RmlCD inh 1536 retest – also measured in RmlCD inh 1536; calls as there; inhibition, %; measured here: mean retest inhibition;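 single compounds in two wells; values far above 100% likely come from compound fluorescence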
# An asterisk follows results filed as active. Some of the compounds tested; rates above refer to the full screens.
molecule | RmlCD inh 1536 | RmlCD inh 1536 retest
CO/N=C/C(=N\Nc1cc(OC)cc(OC)c1)C(=O)c1ccccc1 | 36 | -3
[O-]/C(=C(\C(=S)Nc1ccc(SC(F)F)cc1)[n+]1cccc(CO)c1)c1ccc(Cl)s1 | 103 | 9
Cc1sc2ncn(CC(=O)NCC3COc4ccccc4O3)c(=O)c2c1S(=O)(=O)N1CCOCC1 (configuration not stated) | 43 | -17
Cc1ccc(C(=O)C2CCN(S(=O)(=O)c3c(C)noc3C)CC2)cc1 | 31 | -6
O=C(Nc1ccc(F)c([N+](=O)[O-])c1)c1ccc2c(c1)OCCO2 | 31 | -9
CC(C)(C)C(=O)Nc1ccc(S(=O)(=O)Nc2ccccn2)cc1 | 46 | 8
CCN(CC)C(=S)SCC(=O)Nc1ccc(S(N)(=O)=O)cc1 | 38 | -7
O=C(CN1CCCC1)OCCCC1CCCCC1 | 68 | 1
COc1ccc2nc(SCc3cccc(C)c3)nc(C)c2c1 | 38 | -12
CC(C)C(NC(=O)CC12CC3CC(CC(C3)C1)C2)C(=O)O (configuration not stated) | 33 | -9
O=S(=O)(Nc1ccc(-c2nc3cccnc3s2)cc1)c1cccs1 | 108 | -461
O=C(N/N=C/c1ccc(O)cc1)/C(=C/c1ccccc1)CCO | 33 | -2
CCC(=O)Oc1ccc(C(=O)Nc2ccccc2C(=O)NCC(C)C)cc1 | 55 | 8
COc1ccc(/C=N/OCC(=O)NCc2cccs2)c(OC)c1 | 95 | 10
CCn1cc(-c2cc(C(=O)O)on2)c(C)n1 | 63 | -13
COc1ccc(C)cc1NC(=S)NN1CCN(C)CC1 | 59 | -8
Cc1ccc(C(=O)N/N=C\c2cccn2C)cn1 | 82 | -7
COC(=O)c1c(NC(=O)c2ccc(N(C)S(=O)(=O)c3ccc(C)cc3)cc2)sc2c1CCCC2 | 46 | -105
COc1ccc(CCNC(=O)Cn2c(=O)n(CCCC(=O)NCc3ccco3)c(=O)c3sccc32)cc1OC | 36 | -13
O=C(c1ccc(F)cc1)n1c(=S)nc2ccccn21 | 83 | -9
CCCCOC(=O)Nc1cc(C(=O)OC)ccc1C(=O)OC | 68 | -14
COc1ccc2cc(/C=N/NC(=O)c3ccc(CN(c4cccc(Cl)c4Cl)S(C)(=O)=O)cc3)c(Cl)nc2c1 | 41 | -52
Cc1nnc(NN)n(N)c1=O | 83 | -14
COc1cc(/C=N/Nc2ccc(F)cc2F)cc(OC)c1OC | 43 | -2
CC(=O)c1cccc(NC(=O)c2ccc(C(=O)Nc3cccc(C(C)=O)c3)nc2)c1 | 89 | -9
COc1cccc(/C=N/Nc2ncccc2[N+](=O)[O-])c1OC | 44 | 9
CC(=O)NC1(C(=O)O)CCCC1 | 103 | -5
CCNc1nc(C23CC4CC(CC(C4)C2)C3)cs1 | 34 | -4
Cc1ccccc1NC(=O)COC(=O)Cc1cccc(C(F)(F)F)c1 | 38 | 10
COc1cccc(NC(=O)C(Sc2nnc(-c3ccncc3)n2-c2ccc(Cl)cc2)c2ccccc2)c1 (configuration not stated) | 49 | -10
CN(C)CCCn1c(=O)n(CCc2ccccc2)c(=O)c2c3c(sc21)CCCCC3 | 30 | -19
Cc1nc(S(=O)(=O)Cc2ccc(Cl)cc2)nc2c1CCC2 | 45 | -7
CC1(c2ccccc2Cl)NC(=O)N(CC(=O)NCc2ccco2)C1=O (configuration not stated) | 48 | -7
CCOC(=O)c1nc(C)sc1-c1ccnn1S(=O)(=O)c1ccc(Cl)cc1Cl | 49 | -13
Cc1cc(Oc2ccc([N+](=O)[O-])cc2)nc(N2CCOCC2)n1 | 33 | -6
CCCCC(O)(CCCC)C(=O)NN(C(=O)CCl)c1ccccc1 | 74 | 4
CSc1[nH]c(=O)c(C(=O)O)cc1C#N | 74 | 9
CC1(C)OC(=O)C(=CNc2cccc(C(=O)O)c2)C(=O)O1 | 36 | 12
CCOC(=O)/C(C#N)=N\Nc1cc(Cl)ccc1OC | 32 | -12
N/C(=N\OC(=O)CCCOc1ccccc1)c1ccc([N+](=O)[O-])cc1 | 52 | -3
COc1ccc(SCCC(=O)NCc2ccncc2)cc1 | 65 | -3
O=C(Nc1ccc(S(=O)(=O)Nc2nccs2)cc1)c1cc(-c2ccncc2)nc2ccccc12 | 61 | 5
Cc1cccn2c(=O)c(C=Nc3ccccc3)c(NCCO)nc12 | 55* | 57*
Cn1nc(C(C)(C)C)c(NC(=O)c2ccc(F)cc2)c1C(C)(C)C | 38 | 8
CCOc1ccc(N(CC(=O)NCCc2ccc(Cl)cc2)S(=O)(=O)c2c(C)[nH]c(=O)[nH]c2=O)cc1 | 41 | 9
CC(=O)c1sc(N2CCOCC2)nc1-c1ccccc1 | 67 | 12
CC(C)NC(=O)NNc1c(Cl)cncc1Cl | 40 | 6
CCOC(=O)COc1nc(-c2ccc(Cl)cc2)cc(-c2ccco2)c1C#N | 32 | -69
O=C(N/N=C/c1cn(-c2ccccc2)nc1-c1ccccc1)c1ccco1 | 103 | -4
CC(C)C(=O)Nc1ccc(NC(=O)c2ccc([N+](=O)[O-])cc2Cl)cc1 | 31 | -5

# Complete entries, quoted from the list:
# CC(=O)NC1(C(=O)O)CCCC1 is entered as RmlCD inh 1536 = 103; RmlCD inh 1536 retest = -5
# [O-]/C(=C(\C(=S)Nc1ccc(SC(F)F)cc1)[n+]1cccc(CO)c1)c1ccc(Cl)s1 is entered as RmlCD inh 1536 = 103; RmlCD inh 1536 retest = 9

# Next section
molecule | RmlCD inh 1536 | RmlCD inh 1536 retest
COc1ccc(CCN(C)C(=O)/C=C/c2c(Cl)nc3ccccn23)cc1OC | 97 | 9
Clc1ccc(-c2noc(CN3CCOCC3)n2)cc1 | 43 | 2
COc1ccc2[nH]c(=O)c(CNc3ccccc3OC)cc2c1 | 32 | -2
COc1ccc(CC(=O)Nc2ccc(C(=O)NC(C)(C)C)cc2)cc1 | 40 | -3
Nc1nnc(CC(=O)Nc2ccccc2)s1 | 35 | -3
N=C1c2ccccc2CN1c1ccc(F)c([N+](=O)[O-])c1 | 49 | -17
Cn1c(CNC(=O)c2ccco2)nnc1SCC(=O)Nc1cccc(F)c1 | 33 | 2
CCCCC(=O)Nc1ccc2c(c1)nc1n2CCN(CCOC)C1 | 63 | -18
CCC(=NCC1CCCO1)c1c(O)n(-c2ccccc2C)c(=O)[nH]c1=O (configuration not stated) | 67 | 3
COc1cc(S(=O)(=O)N(Cc2ccccc2)CC2CCCO2)ccc1-n1cnnn1 (configuration not stated) | 46 | -18
COc1cc(NC(=O)COC(=O)CNC(=O)c2ccc(C)cc2)c(C)cc1[N+](=O)[O-] | 95 | -10
Cn1nc(C(C)(C)C)cc1C(=O)Sc1cccc(Br)c1 | 40 | 12
COc1ccc(/C=C/C(=O)Nc2ccc(OC)cc2[N+](=O)[O-])cc1 | 32 | 9
Cc1ccc(NCCCCO)cc1C | 47 | -16
Cc1[nH]c2ccccc2c1C(=O)C(=O)N1CC=C(c2ccccc2)CC1 | 31 | -4
O=C(CC1S/C(=N/N=C/c2cccs2)NC1=O)Nc1ccc(Cl)c(Cl)c1 (configuration not stated) | 107 | -10
O=C(COc1ccc(Cl)cc1)NCc1nnc(SCC(=O)N2CCCCC2)o1 | 73 | 0
S=c1[nH]nc(-c2cccnc2)n1/N=C/c1ccccc1 | 33 | -8
COc1ccc(OC)c2[nH]c(=O)c(CCNC(=O)c3ccc(S(=O)(=O)N(C)C)cc3)cc12 | 83 | -20
Cc1nnc(SCCN2CCOCC2)c2nn(-c3ccccc3F)c(C)c12 | 37 | 1
CCNC(=O)c1cc2c(=O)n3cccc(C)c3nc2n(Cc2ccc(C)cc2)c1=N | 57* | 159*
CCOC(=O)c1cc2sccc2n1CC(=O)N1CCCC1 | 53 | 1
CCc1nnc(NS(=O)(=O)c2ccc(NC(=S)NC(=O)/C=C/c3ccc(OC)cc3)cc2)s1 | 33 | -10
CC(C)(C)OC(=O)N1CCN(C(=O)c2cccnc2Cl)CC1 | 73 | 5
O=C1CN=CN=CN1c1ccc(Cl)cc1Cl | 77 | -10

# Among those listed so far, these contain a nitro group on carbon.
molecule | RmlCD inh 1536 | RmlCD inh 1536 retest
O=C(Nc1ccc(F)c([N+](=O)[O-])c1)c1ccc2c(c1)OCCO2 | 31 | -9
COc1cccc(/C=N/Nc2ncccc2[N+](=O)[O-])c1OC | 44 | 9
Cc1cc(Oc2ccc([N+](=O)[O-])cc2)nc(N2CCOCC2)n1 | 33 | -6
N/C(=N\OC(=O)CCCOc1ccccc1)c1ccc([N+](=O)[O-])cc1 | 52 | -3
CC(C)C(=O)Nc1ccc(NC(=O)c2ccc([N+](=O)[O-])cc2Cl)cc1 | 31 | -5
N=C1c2ccccc2CN1c1ccc(F)c([N+](=O)[O-])c1 | 49 | -17
COc1cc(NC(=O)COC(=O)CNC(=O)c2ccc(C)cc2)c(C)cc1[N+](=O)[O-] | 95 | -10
COc1ccc(/C=C/C(=O)Nc2ccc(OC)cc2[N+](=O)[O-])cc1 | 32 | 9

# The listing continues:
molecule | RmlCD inh 1536 | RmlCD inh 1536 retest
O=C(c1cc2ccccc2c(=O)o1)N1CCCc2ccccc21 | 59 | -10
CC(CC(=O)NCC1CCCO1)c1ccccc1 (configuration not stated) | 46 | -17
O=C(CSc1nc(-c2ccccc2F)nc2nc[nH]c12)Nc1c(Cl)cc(Cl)cc1Cl | 31 | 1
CC(C)N(C)C(=O)C(=O)c1cccn1-c1cccc(Cl)c1C#N | 32 | -11
Cc1ccc(S(=O)(=O)N2CCN(c3ccc(C(=O)N4CCOCC4)cc3[N+](=O)[O-])CC2)cc1 | 38 | -8
COc1cc(NC(=S)Nc2cccnc2)cc(OC)c1 | 52 | -6
Cc1ccc(NC(=O)C[n+]2cc(-c3ccc(C)cc3)n3c2CCC3)cc1 | 44 | -14
C/C(Cc1ccccc1)=N\NC(=O)CNC(=O)c1ccc(Cl)cc1Cl | 32 | -15
O=C(O)/C=C/C(=O)N1Cc2cc3ccccc3nc2C1 | 74 | 8
CCCN(CCC)S(=O)(=O)c1cccc(C(=O)Nc2ccc3c(c2)OCO3)c1 | 40 | -8
CC(=O)N1N=C(c2ccco2)CC1c1cc2ccc(C)cc2nc1Cl (configuration not stated) | 36 | 11
CCN(CC)S(=O)(=O)c1ccc(N2CCOCC2)c(NC(=O)Cc2cccc3ccccc23)c1 | 59 | 13
Fc1ccc(-n2c(Cn3nnc4ccccc43)n[nH]c2=S)cc1 | 35 | -7
COC(=O)c1cc(OC)c(OC)cc1NCC(=O)Nc1ccc(C)cc1 | 45 | -26
COCCCn1cc(C(=O)c2ccccc2OCC(=O)Nc2cccc(F)c2)cc(C#N)c1=O | 50 | 10
O=C(CSc1nc2c(sc3ccccc32)c(=O)n1CCCN1CCCC1)NCc1ccco1 | 31 | -2
Nc1c(-c2ccccc2)c(CSc2nc3ccccc3[nH]2)nn1-c1ccc(C(=O)O)cc1 | 74 | 5
CC(=O)C1=C(c2ccccc2)NC(=O)NC1c1ccccc1OCC(=O)NCc1ccccc1 (configuration not stated) | 79 | -1
Cc1ccccc1OCC(=O)Nc1nnc(-c2ccncc2)s1 | 50 | -59
COc1ccc(CCNc2cc(C)nc3c(-c4ccc(Cl)cc4)cnn23)cc1OC | 79 | -106
CCn1c(SCC(=O)N2c3ccccc3CCc3ccccc32)nnc1-c1ccc(OC)cc1 | 78 | -7
NC(=O)c1sc(-c2ccsc2)cc1NS(=O)(=O)c1ccc(C(F)(F)F)cc1 | 36 | -3
O=C(CSc1ccccc1C(=O)O)NC1CCCCCC1 | 79 | -17
COc1cccc(CN(C)CC(=O)Nc2ccccc2C(=O)Nc2ccccc2)c1 | 36 | 5
COc1ccc(C(=O)NCc2nnc(SC)n2Cc2ccccc2)cc1 | 94 | -21
COc1cc(/C=N/NC(=O)C[n+]2ccccc2)cc(OC)c1OC(C)=O | 43 | -4
Cc1ncsc1C(=O)O | 65 | -10
CCOC(=O)Cn1c(O)c(N=NC(=O)OC)c2ccccc21 | 37 | 9
CNC(=O)c1cc2c(s1)-c1ccccc1CC2 | 57* | 104*
CCOCCCNC(=O)CCC(=O)NNc1nc2ccccc2c2nc(-c3ccccc3)nn12 | 65 | -1
NC(=O)c1ccc(NC(=O)C2CC2)cc1 | 43 | -31
S=c1[nH]nc(-c2ccc(Cl)cc2)n1/N=C/C=C/c1ccco1 | 60 | -8
CN1C(=O)CC(N2CCN(C(=O)c3ccccc3)CC2)C1=O (configuration not stated) | 32 | -29
CN(C)S(=O)(=O)c1cc(NC(=O)CSc2ncc(C(F)(F)F)cc2Cl)ccc1Cl | 31 | -5
CCOC(=O)N1CCC(N(CCN(C)C)C(=S)Nc2cc(Cl)ccc2C)CC1 | 30 | -5
CN(CCO)CCOCCOc1cccc2ccccc12 | 41 | -5
COc1cccc(OCc2nc(-c3cccc([N+](=O)[O-])c3)no2)c1 | 46 | -10
CN(C)c1c2ccccc2nc2c(F)c(F)c(F)c(F)c12 | 41* | 186*
COc1ccc(C(=O)c2c(C)c3ccccc3n2CC(O)CNC(C)C)cc1 (configuration not stated) | 62 | -3
Cc1ccc2nc(Cl)c(/C=N/Nc3ccc(C(=O)O)cc3)cc2c1 | 32 | 4
Cc1ccccc1C(=O)Nc1nnc(CC(=O)N/N=C/c2ccncc2)s1 | 58 | -11
Cc1ccc([N+](=O)[O-])cc1NC(=O)C(C)NS(=O)(=O)c1ccc(F)cc1 (configuration not stated) | 80 | -13
C=CCON/C(CCC)=C1\C(=O)C(C(=O)OC)C(C)(C)CC1=NC (configuration not stated) | 55 | -7
CCC(C)[C@H](NC(=O)N1CCCC1)C(=O)O (some centres not stated) | 62 | -9
CC(C)c1nc(C#N)c(N2CCOCC2)o1 | 60 | 5
Cc1c(N=C2SCC(=O)N2/N=C/c2ccccc2Cl)c(=O)n(-c2ccccc2)n1C | 61 | -8
CC(=O)Nc1ccccc1C(=O)OCc1ccc(F)cc1 | 42 | -2
O=[N+]([O-])c1ccc(N2CCOCC2)cc1NC(c1ccccc1)c1ccccc1 | 65 | -1
Cc1cc(C(=O)Nc2ccccc2)c(C)o1 | 96 | -5
Cc1ccc(Cn2c([N+](=O)[O-])cnc2C)cc1 | 50 | 3
COc1ccc(CCNCC(O)Cn2c3ccccc3c3ccccc32)cc1OC (configuration not stated) | 47 | -14
